# High-throughput results: PubChem BioAssay, National Center for Advancing Translational Sciences (NCATS)
# GLA inh pH 4.5: inhibitors of human alpha-galactosidase A at pH 4.5; 230,000 tested, under 10 active; AID 1467; activity change, negative = inhibition, % at 105 µM; purified enzyme, 4-MU-alpha-Gal fluorescence, pH 4.5; inconclusive = small, poorly fitted or top-dose-only inhibition, or a rising curve; inactive = flat fitted curve, though single readings scatter; no compound was filed as active;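 also: 0% = full activity with enzyme and -100% = basal without enzyme; dose as in the result columns while the protocol names 77 µM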
# miR-21 FLuc: miR-21 reporter, rising signal | Potency, µM (titrated, usually from 38.3 µM), inactives show at the highest dose reporter change, positive = more light | HeLa miR-21 FLuc reporter, luciferase, 48 h | 340,000 tested, under 10 active; active = well fitted rising curve with a large enough effect; inconclusive = small, poorly fitted or top-dose-only effect; inactive = no such curve, though single readings can be large or run the other way;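 also: % of control where 0% means no effect; miR-21 action dims this reporter so a rising signal means less miR-21 action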
#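 Compounds were titrated across several concentrations (up to approximately 40 uM) and incubated 48 hours with HeLa miR-21-FLuc reporter cells (miR-21 target sequence downstream of FLuc, endogenous miR-21). Readout was firefly luciferase luminescence after lytic detection reagent.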
# Rango complex inh: inhibitors of Rango-importin beta complex formation; Q14974; Rango CFP/YFP FRET sensor + importin beta, 45 min; Potency, µM (highest dose often 92.2 µM), for the others: at the highest dose inhibition of complex formation; 340,000 compounds, 0.031% hits; AID 540263; active = rising FRET ratio curve, often small or poorly fitted; inconclusive = mostly compound fluorescence or quenching in the first reads; inactive = flat curves in all reads;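 also: potency is read from the fitted curve at half-maximal effect; 0% = DMSO wells and 100% = buffer wells lacking importin beta; nearly all actives have a fitted effect of over 15% in size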
# Target sequence (Q14974 whole entry, looked up): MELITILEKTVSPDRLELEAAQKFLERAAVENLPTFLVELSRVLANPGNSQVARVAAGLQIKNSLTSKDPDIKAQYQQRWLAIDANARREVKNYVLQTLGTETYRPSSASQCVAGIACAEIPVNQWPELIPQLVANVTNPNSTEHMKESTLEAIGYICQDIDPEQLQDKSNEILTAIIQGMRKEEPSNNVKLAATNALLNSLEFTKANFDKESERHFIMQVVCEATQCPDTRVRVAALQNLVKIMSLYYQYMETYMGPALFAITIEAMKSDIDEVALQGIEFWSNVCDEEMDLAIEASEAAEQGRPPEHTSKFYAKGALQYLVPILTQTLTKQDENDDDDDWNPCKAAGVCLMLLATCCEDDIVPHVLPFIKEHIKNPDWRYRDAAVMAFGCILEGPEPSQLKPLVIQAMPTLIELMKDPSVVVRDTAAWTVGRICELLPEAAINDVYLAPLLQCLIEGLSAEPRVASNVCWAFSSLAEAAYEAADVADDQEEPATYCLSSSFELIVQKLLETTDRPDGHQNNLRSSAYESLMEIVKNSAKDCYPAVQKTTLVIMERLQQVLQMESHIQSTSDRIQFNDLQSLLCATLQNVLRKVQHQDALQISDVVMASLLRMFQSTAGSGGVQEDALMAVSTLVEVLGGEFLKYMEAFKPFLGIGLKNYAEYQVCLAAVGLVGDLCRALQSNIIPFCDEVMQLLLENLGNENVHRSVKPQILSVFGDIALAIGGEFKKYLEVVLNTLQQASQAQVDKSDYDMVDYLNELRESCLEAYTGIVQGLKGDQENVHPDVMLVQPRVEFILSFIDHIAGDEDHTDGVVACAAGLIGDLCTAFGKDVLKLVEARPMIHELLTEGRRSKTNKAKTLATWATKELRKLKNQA
#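 FRET biosensor Rango (snurportin 1 IBB between N-terminal EYFP and C-terminal Cerulean), 50 nM in PBS/1 mM DTT/0.02% Tween-20/0.1% BSA, preincubated 5 min RT with compound; 0.125 microM importin beta added, 45 min RT, CFP/YFP FRET ratio read.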
# Rango release inh: inhibition of RanGTP-driven Rango-importin beta dissociation; O95149+P62826; Biochemical FRET Rango-importin beta, RanGTP-induced dissociation; Potency, µM (highest dose often 46.1 µM), for inactives: at the highest dose activity change, negative = inhibition; 340,000 compounds, 0.071% hits; AID 540253; active means falling FRET ratio curve, often poorly fitted, with flat reads before Ran was added; inconclusive means other falling curves, or compound fluorescence or quenching; inactive means flat or rising ratio curve;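 also: potency is read from the fitted curve at half-maximal effect; % of control where 0% means no effect; nearly all actives have a fitted effect of over 45% in size; -100% = wells without RanGTP and RCC1; the record marks most hits as doubtful in a second field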
#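 Quantitative HTS using a FRET biosensor: 0.1 uM Rango, 0.25 uM importin beta, 0.6 uM Ran, 2 mM GTP, 0.2 uM RCC1 final, PBS with DTT, Tween-20 and BSA. Post-read taken 45 min after Ran addition.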
# An asterisk follows results filed as active; ? = inconclusive; / = not tested or not shown; & = joins results of further samples.
GLA inh pH 4.5 | miR-21 FLuc | Rango complex inh | Rango release inh | canonical_smiles
/ | 23% | -4.7% | 11% | N#Cc1ccc(-c2ccc(OCC(=O)Nc3cccnc3)cc2)cc1
1 | -29% | -1.3% | 2% | Fc1ccc(NC(=S)N2CCc3ccccc3C2)c(F)c1
/ | / | 5.7% | 3% | O=C(OCc1c(-c2ccccc2)ncc2ccccc12)c1ccccc1C(F)(F)F
/ | / | -9.7% | 7% | COc1ccc(CNC(=O)C[C@H]2C[C@H](C(=O)N(C(C)C)C(C)C)[C@@]3(C)c4[nH]c5ccc(Cl)cc5c4CCN3C2=O)cc1OC
/ | -8% | -2.9% | -6% | O=C(NCc1ccccc1)c1ccc(NC(=O)C2CCCO2)cc1 (stereo not drawn)
? | -1% | -2.8% | 20% | O=C(O)CSc1ncccn1
-4 | -40% | 1.7% | 22% | Cc1onc(-c2ccccc2)c1C(=O)Nc1nc(-c2ccccc2)cs1
/ | -2% | -3.6% | -10% | CCCCNC(=O)C(=O)Nc1cc2c3c(c1)CCC(=O)N3CCC2
/ | / | 3.3% | -8% | O=C(CNC(=O)c1ccc(Cl)c([N+](=O)[O-])c1)OCN1C(=O)c2ccccc2C1=O
1 | ? | 0.8% | -13% | Cc1cc(C)cc(N2CC(O)=C(c3nc4ccccc4c(=O)[nH]3)C2=N)c1
/ | -53% | 2.1% | 12% | COc1cccc(-c2nnc(NC(=O)c3ccco3)s2)c1
8 | -2% | -2.1% | -6% | Cc1ccc(C)c(NC(=S)N(C2CCCCC2)C(C)c2cccnc2)c1 (stereo not drawn)
-6 | -6% | -0.2% | -2% | O=C(CCCN1C(=O)/C(=C\c2cccc(Br)c2)SC1=S)Nc1cccnc1
-2 | -1% | 2.2% | 22% | O=C(c1cccn(Cc2ccc(Cl)c(Cl)c2)c1=O)N1CCOCC1
6 | -10% | -0.9% | 1% | Cc1ccc2nsnc2c1NC(=O)c1sc2ccccc2c1Cl
/ | / | ? | -8% | CCC1Nc2ncnc(N3CCOCC3)c2N(Cc2ccc(OC)cc2)C1=O (stereo not drawn)
/ | / | 0.2% | 6% | CC(=O)Nc1ccc(S(=O)(=O)NCC(=O)OCC(=O)Nc2sccc2C(N)=O)cc1
/ | / | 9.7% | 0% | COc1ccc(NC(=O)CSCC(=O)N(C)CC(=O)Nc2c(C)cccc2C)cc1
/ | -38% | 2.1% | 6% | CC1CCN(c2ccc(-c3ccc(NC(=O)C(F)(F)F)cc3)nn2)CC1
/ | -46% | 1.0% | 14% | C=CCc1ccc(OCc2ccc(C(=O)O)o2)c(OC)c1
/ | / | ? | -9% | C=CCOC(=O)C1=C[C@@H](c2ccc(Br)cc2)C[C@@H](OCCCCO)O1
-2 | -16% | -2.0% | 23% | Cc1nc(-c2cccc(Cl)c2)n[nH]1
/ | / | -0.8% | -16% | CCOC(=O)CCCCCC(=O)Nc1ccc2c(c1)CC(=O)N([C@@H](C)CO)C[C@@H](C)[C@@H](CN(C)C(=O)Nc1ccc(C(F)(F)F)cc1)O2
/ | / | 0.7% | ? | CCc1onc(C)c1C(=O)Nc1ccc(N2CCOCC2)cc1
3 | 2% | 2.8% | 1% | CCOC(=O)C1CCCN(C(=O)c2ccc(Cl)cc2)C1 (stereo not drawn)
/ | -3% | 0.6% | ? | CCN(CC)S(=O)(=O)c1ccc(S(=O)(=O)NCC2CCCO2)cc1 (stereo not drawn)
/ | / | -0.2% | -1% | COC(C/C=C/C(=O)[C@H](C)OCc1ccccc1)OC
-5 | -11% | -1.8% | 10% | O=C(NCCC1=CCCCC1)N[C@@H](Cc1ccccc1)C(=O)O
1 | -1% | 3.6% | -7% | N#CC(C#N)=C1C(=O)N(CCN2CCOCC2)c2ccccc21
7 | 2% | -0.9% | -4% | CCNC(=O)COC(=O)c1cccc(Br)c1
2 | 13% | 3.3% | -7% | COc1ccc(CCNc2cc(C)nc3c(-c4ccc(Cl)cc4)cnn23)cc1OC
-16 | 2% | -1.0% | 1% | CC1=CC(C)C2(COC(=O)Nc3ccccc3)COC(C)C1C2C (stereo not drawn)
-2 | -2% | ? | ? | Cn1cccc1/C=C1\SC(=S)N(NC(=O)c2ccccc2)C1=O
-1 | ? | 2.7% | -5% | COc1ccc(CN(C)C(=O)CCl)cc1
-2 | -39% | 0.1% | 17% | CC(C)COc1ccc(-c2cc(C(=O)NN)[nH]n2)cc1
-2 | 13% | ? | -4% | CCOC(=O)C1(CCOc2ccccc2)CCN(Cc2cccc3c2OCO3)CC1

# A draw from above in order of molecular weight, smallest number first:
GLA inh pH 4.5 | miR-21 FLuc | Rango complex inh | Rango release inh | canonical_smiles
-2 | -16% | -2.0% | 23% | Cc1nc(-c2cccc(Cl)c2)n[nH]1
-1 | ? | 2.7% | -5% | COc1ccc(CN(C)C(=O)CCl)cc1
-2 | -39% | 0.1% | 17% | CC(C)COc1ccc(-c2cc(C(=O)NN)[nH]n2)cc1
/ | / | -0.2% | -1% | COC(C/C=C/C(=O)[C@H](C)OCc1ccccc1)OC
7 | 2% | -0.9% | -4% | CCNC(=O)COC(=O)c1cccc(Br)c1
/ | -46% | 1.0% | 14% | C=CCc1ccc(OCc2ccc(C(=O)O)o2)c(OC)c1
3 | 2% | 2.8% | 1% | CCOC(=O)C1CCCN(C(=O)c2ccc(Cl)cc2)C1 (stereo not drawn)
1 | -1% | 3.6% | -7% | N#CC(C#N)=C1C(=O)N(CCN2CCOCC2)c2ccccc21
-5 | -11% | -1.8% | 10% | O=C(NCCC1=CCCCC1)N[C@@H](Cc1ccccc1)C(=O)O
-16 | 2% | -1.0% | 1% | CC1=CC(C)C2(COC(=O)Nc3ccccc3)COC(C)C1C2C (stereo not drawn)
/ | -38% | 2.1% | 6% | CC1CCN(c2ccc(-c3ccc(NC(=O)C(F)(F)F)cc3)nn2)CC1
/ | -3% | 0.6% | ? | CCN(CC)S(=O)(=O)c1ccc(S(=O)(=O)NCC2CCCO2)cc1 (stereo not drawn)
/ | / | ? | -9% | C=CCOC(=O)C1=C[C@@H](c2ccc(Br)cc2)C[C@@H](OCCCCO)O1
2 | 13% | 3.3% | -7% | COc1ccc(CCNc2cc(C)nc3c(-c4ccc(Cl)cc4)cnn23)cc1OC
/ | / | -0.8% | -16% | CCOC(=O)CCCCCC(=O)Nc1ccc2c(c1)CC(=O)N([C@@H](C)CO)C[C@@H](C)[C@@H](CN(C)C(=O)Nc1ccc(C(F)(F)F)cc1)O2

# Remaining list, next part
GLA inh pH 4.5 | miR-21 FLuc | Rango complex inh | Rango release inh | canonical_smiles
-1 | 0% | ? | ? | COc1cc(S(=O)(=O)Nc2ccc(C)cc2)ccc1N=Cc1c(C)c(C#N)c(=O)n(C)c1O
-1 | 4% | -0.2% | 7% | Cc1cc(-n2c(C)cc(C(=O)CSc3nnnn3-c3ccccc3)c2C)no1
-1 | 1% | 1.0% | 32% | CCCCn1nc(C(=O)OCC(=O)Nc2sccc2C(N)=O)c2ccccc2c1=O
9 | -8% | -1.8% | 9% | O=C(CCS(=O)(=O)Cc1ccccc1F)N1CCc2ccccc2C1
/ | / | -0.6% | 24% | S=C(NCc1ccccn1)NN=Cc1ccccn1
3 | -3% | 2.3% | 8% | Cc1noc(C)c1C(=O)N1CCc2ccccc2C1
/ | / | 0.8% | -10% | Cc1ccc(NC(=O)CNc2cc(S(=O)(=O)N3CCOCC3)ccc2N2CCOCC2)cc1S(=O)(=O)N(C)C
0 | -44% | ? | 9% | Nc1ccc2oc(-c3ccccn3)nc2c1
-11 | 11% | 0.2% | -1% | NNC(=O)c1cc2cc3ccccc3nc2s1
-1 | 2% | 3.1% | 0% | CCC(C)(C)NC(=O)C(c1ccc(C)cc1)N(CC1CCCO1)C(=O)CNC(=O)c1cccs1 (stereo not drawn)
/ | 15% | 5.0% | 1% | CC(C)[C@@H](C(=O)NC1CCCC1)N1C(=O)N2CCc3c([nH]c4ccccc34)[C@@]2(C)C1=O
/ | -64% | -0.8% | 15% | COc1ccccc1NC(=O)c1ccc2c(c1)OCO2
/ | 1% | 1.2% | 10% | COc1ccc(C(=O)NCc2csc(C(C)C)n2)cc1OC1CCN(C(C)=O)CC1
0 | 10% | 1.2% | -5% | CCOC(=O)c1c(C)[nH]c(C)c1C(=O)CSc1nc2ccccc2c(=O)n1-c1ccc(F)cc1
4 | 10% | -0.2% | -3% | COc1ccc(CCNC(=O)CSc2nnc(-c3cccc(C)c3)o2)cc1OC
4 | -31% | 2.9% | ? | N#C/C(=C\c1cccnc1)c1ccc(Br)cc1
9 | 8% | -0.3% | -11% | COc1ccc(N2CCN(C(c3ccccc3)c3nnnn3Cc3ccc(F)cc3)CC2)cc1 (stereo not drawn)
/ | / | -4.4% | -6% | COc1ccc(S(=O)(=O)N2CCCCCC2)cc1NC(=O)CCc1cc(OC)c(OC)c(OC)c1
0 | 0% | -1.9% | 24% | Cc1c(N)cccc1-n1cnnn1
/ | 2% | 0.8% | 1% | Cc1cccc(CN2CCNC2=O)c1
-3 | 2% | 0.3% | 2% | O=C(c1cc2cc([N+](=O)[O-])ccc2oc1=O)N1CCN(C2CCCCC2)CC1
3 | -5% | -0.7% | -7% | CCOC(=O)c1c(CN2CCCCC2)n(C)c2cc(Br)c(O)cc12
-3 | 0% | -2.2% | 18% | Cc1c(C(=O)NC(=S)Nc2ccc(N3CCOCC3)cc2)cccc1[N+](=O)[O-]
0 | 0% | 4.1% | 15% | COc1ccc(CC(=O)OCC(=O)NCc2ccc(Cl)cc2)cc1
/ | / | -0.6% | 6% | COc1ccc(C(CNC(=O)c2cccc(NC(=O)c3cccs3)c2)N2CCCC2)cc1 (stereo not drawn)
/ | 2% | -1.2% | -2% | COC(=O)c1ccc(NC(=O)CCS(=O)(=O)c2ccc(C)cc2)cc1
-22 | -3% | -1.6% | -1% | CCOC(=O)C1CCCN(C(=O)C(C)Oc2ccc(Cl)cc2Cl)C1 (stereo not drawn)
/ | 0% | -0.5% | 26% | O=C(CSc1nnc(-c2ccc(O)cc2)o1)NNC(=O)c1ccncc1
-5 | 5% | -6.1% | ? | Cc1ccc(C)c(N2CCN(CC(=O)Nc3ccc([N+](=O)[O-])cc3C(=O)Nc3ccccc3F)CC2)c1
-4 | -5% | -0.8% | 15% | Fc1ccccc1OCC1CCCN(Cc2nc(CC3CC3)no2)C1 (stereo not drawn)
3 | -5% | 1.5% | 6% | NS(=O)(=O)c1ccc(CCNC(=O)COC(=O)CCSc2ccc(Cl)cc2)cc1
/ | 1% | ? | 6% | O=C(NCCN1CCN(C(=O)c2cccc([N+](=O)[O-])c2)CC1)C(=O)NCc1ccc(Cl)cc1
5 | 14% | -0.5% | -15% | Oc1cccc2ccc[n+](CC(O)Cn3c4ccccc4c4ccccc43)c12 (stereo not drawn)
/ | 19% | -2.2% | 5% | Cc1ccc(-c2cc(C(=O)N/N=C/c3ccc([N+](=O)[O-])o3)c3ccccc3n2)o1
4 | -9% | ? | 27% | O=C(COC(=O)c1ccccc1C(=O)c1ccc(Cl)cc1)NCc1ccccc1
7 | -1% | 0.3% | -13% | COc1ccc(C(=O)NCC(c2ccc(F)cc2)N2CCOCC2)cc1S(=O)(=O)N1CCCC1 (stereo not drawn)
-5 | -6% | -0.6% | -15% | CC(=O)c1c(N2CCN(Cc3ccccc3)CC2)nc(=S)n(Cc2ccccc2)c1C
-8 | -8% | 2.2% | 1% | COC(=O)c1c(NC(C)=O)sc(C(=O)Nc2ccccc2OC)c1C
/ | -6% | 0.2% | 8% | CCn1cc(CNC(=O)C2CCC(=O)N(CCc3cccc(F)c3)C2)cn1 (stereo not drawn)
8 | 0% | -1.9% | 17% | Cc1ccc(C(=O)Nc2cccc(C(=O)NCc3ccccc3)c2)o1
1 | 3% | 0.2% | 5% | COc1ccc(Nc2nnc(-c3ccc(N4CCOCC4)c([N+](=O)[O-])c3)c3ccccc23)cc1
/ | 0% | 2.8% | 3% | O=C(Nc1ccc(Cl)cc1)Nn1cnnc1
-8 | -2%&1% | -1.9% | -7% | CCOCCCNC(=O)CCC(=O)NNc1nc2ccccc2c2nc(C)nn12
-18 | -1% | -1.5% | -12% | CC1Cc2ccccc2N1C(=O)Cn1cnc2ccccc2c1=O (stereo not drawn)
/ | 18% | -2.1% | -17% | COc1ccccc1CN(C)C(=O)c1cc(-c2cc(OC)c(OC)c(OC)c2)nc2ccccc12

# These rows are one share of the data, so the mix of outcomes need not match the whole.
